INS promoter inh: TRM-6 insulin promoter activity inhibition; TRM-6 cells (human fetal islet line), insulin promoter-eGFP reporter, imaging; reporter expression induced with tamoxifen; inhibition, % at 2 µM; actives 0.9% (n = 130,000); AID 1273;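 active means inhibition above the mean plus 3 SD, with well images judged a real hit on visual review, cut at about 60% in these data, passing the limit was not always enough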
PKD1 kinase inh: PKD1 (human) kinase inhibition. Q15139. AID 797. inhibition, %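 (about 10 µM by stock and volumes)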. actives 0.056% (n = 200,000). PKD1 kinase fluorescence polarization assay;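 active means inhibition of 50% or more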;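 further: controls were vehicle for no effect and a reference inhibitor for full effect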
Target sequence (Q15139 whole entry, looked up): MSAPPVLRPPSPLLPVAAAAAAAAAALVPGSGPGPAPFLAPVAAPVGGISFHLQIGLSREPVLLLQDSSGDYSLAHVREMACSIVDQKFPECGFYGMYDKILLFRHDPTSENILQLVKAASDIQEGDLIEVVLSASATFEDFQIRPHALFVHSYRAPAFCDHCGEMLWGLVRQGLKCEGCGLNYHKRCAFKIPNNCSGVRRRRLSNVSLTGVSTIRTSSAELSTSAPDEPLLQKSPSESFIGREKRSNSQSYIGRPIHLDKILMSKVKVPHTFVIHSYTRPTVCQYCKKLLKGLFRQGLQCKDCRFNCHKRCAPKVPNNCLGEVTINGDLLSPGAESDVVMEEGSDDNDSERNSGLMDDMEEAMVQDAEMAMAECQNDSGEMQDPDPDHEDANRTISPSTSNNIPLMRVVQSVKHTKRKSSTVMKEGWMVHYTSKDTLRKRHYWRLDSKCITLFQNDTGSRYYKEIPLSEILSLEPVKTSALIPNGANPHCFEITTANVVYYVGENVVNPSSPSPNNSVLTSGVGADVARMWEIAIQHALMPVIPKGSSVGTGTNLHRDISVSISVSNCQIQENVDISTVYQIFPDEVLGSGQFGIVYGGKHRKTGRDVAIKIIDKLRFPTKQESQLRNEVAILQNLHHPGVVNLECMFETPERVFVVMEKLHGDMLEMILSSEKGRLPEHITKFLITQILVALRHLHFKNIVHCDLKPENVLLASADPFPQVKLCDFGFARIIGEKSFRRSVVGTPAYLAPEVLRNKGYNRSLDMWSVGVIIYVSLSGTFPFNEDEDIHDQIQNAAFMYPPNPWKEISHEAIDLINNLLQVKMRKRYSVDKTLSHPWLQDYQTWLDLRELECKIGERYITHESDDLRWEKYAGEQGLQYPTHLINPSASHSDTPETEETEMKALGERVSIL
GALR2 ag: GALR2 (human) receptor agonism. O43603. GALR2-expressing cells, agonist activation read-out. activation, %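 (tested at 5 µM)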. actives 0.48% (n = 140,000);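 active means above mean plus 3 SD of all compounds, about 5% in these data, not always enough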;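 further: 0% = vehicle buffer wells and 100% = reference agonist at full effect; tested in CHO reporter cells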
RGS16-Gao: modulates binding between human RGS16 and Galphao; O15492+P09471; bead-based flow cytometry RGS16-Galphao binding, fluorescence; actives lie on both sides; binding response (% of control), % at 10 µM; actives 0.38% (n = 220,000);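 active means below 25% or above 175%, edge rows of some plates excepted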;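 further: Galphao activated by GDP with aluminum fluoride before binding; 100% = wells without compound and 0% = beads without RGS; some results beyond the cut were filed as inactive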
HSV replic up: increases HSV replication in cells; maximum fold increase; actives 0.005% (n = 220,000); HSV replication augmentation in cells, fold increase;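 active means peak rise of 1.5-fold or more in the series; tested in PC3 cells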;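 further: first round at 10 µM; read as green reporter fluorescence; hits show the peak of a series up to 25 µM; 1 = signal of infected wells without compound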
INS promoter inh cell count: recorded beside INS promoter inh, whose call it bears; normalized cell count, %; measured here: cell count, toxicity; reference of the scale not given here;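 cells exposed to compound for 48 h; stained nuclei by imaging scaled within each plate; lower means fewer cells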
HSV replic up primary fold: second read-out of HSV replic up, no call of its own (marks repeat the call); fold increase; compound at 10 µM; measured here: primary screen fold increase 10 uM; tested in PC3 cells;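 GFP signal in the first replicate; 1 = infected wells without compound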
The depositor's hits bear a star; i = inactive; . = not tested or not shown.

The opening four entries as a preview:
no.	Compound	INS promoter inh	INS promoter inh cell count	PKD1 kinase inh	GALR2 ag	RGS16-Gao	HSV replic up	HSV replic up primary fold
1	CC12CCC(C(=O)N(c3cccc(Cl)c3)C1=O)C2(C)C (configuration not stated)	-27	62	11	-1.2	40	i	0.98
2	CCCn1c(N)c(C(=O)NS(=O)(=O)c2ccc(C)cc2)c(=O)n(C)c1=O	-24	82	-5	.	106	i	0.94
3	CC(C)(C)OC(=O)Cn1c(=O)cnc2ccccc21	-32	116	-4	-1.1	101	i	0.99
4	COc1ccccc1N(Cc1ccccc1)S(=O)(=O)c1cc(C(=O)O)ccc1Cl	.	.	-5	.	80	i	0.78

The whole of this part, previewed entries included:
no.	Compound	INS promoter inh	INS promoter inh cell count	PKD1 kinase inh	GALR2 ag	RGS16-Gao	HSV replic up	HSV replic up primary fold
1	CC12CCC(C(=O)N(c3cccc(Cl)c3)C1=O)C2(C)C (configuration not stated)	-27	62	11	-1.2	40	i	0.98
2	CCCn1c(N)c(C(=O)NS(=O)(=O)c2ccc(C)cc2)c(=O)n(C)c1=O	-24	82	-5	.	106	i	0.94
3	CC(C)(C)OC(=O)Cn1c(=O)cnc2ccccc21	-32	116	-4	-1.1	101	i	0.99
4	COc1ccccc1N(Cc1ccccc1)S(=O)(=O)c1cc(C(=O)O)ccc1Cl	.	.	-5	.	80	i	0.78
5	O=C(NNC(=O)c1ccc(F)cc1F)c1ccc2c(c1)OCO2	.	.	2	.	108	.	.
6	O=C(Nc1cc(C(F)(F)F)ccc1N1CCOCC1)c1cccnc1	-6	87	5	-1.3	96	i	1
7	Cc1cccc(C)c1NC(=O)CSCC(=O)O	-13	118	-6	-0.5	104	i	0.9
8	COc1ccc(N2CC(C)Cn3c2nc2c3c(=O)n(Cc3ccc(C)cc3)c(=O)n2C)c(OC)c1 (configuration not stated)	29	59	-7	.	106	i	0.88
9	CCCCOC(=O)C1CCCC(C)N1 (configuration not stated)	21	151	-2	-0.5	100	i	1.1
10	COCC(C)Nc1nc(C)c(C(C)=O)s1 (configuration not stated)	.	.	-1	.	93	i	1.3
11	COc1ccccc1Nc1nc2c(C)cccc2cc1C#N	-4	87	-5	-1.7	100	i	0.9
12	COc1cc(/C=C/C(=O)OCC(=O)NC(=O)NCc2ccccc2)ccc1OCC#N	.	.	-2	.	102	i	1
13	COC(=O)c1cc(C#N)c(OC(C)C)nc1C	.	.	-5	.	99	i	0.64
14	C[C@@H]1CC[C@]2(O[C@@H](CCO)C[C@@H](O)[C@@H]2O)O1	.	.	.	.	94	i	0.83
15	CCc1nc(N2CCN(C(C)=O)CC2)c(C#N)c2c1COC(C)(C)C2	.	.	.	.	102	i	0.96
16	CCN(Cc1ccncc1)C(=O)C1CCN(S(=O)(=O)c2cccs2)CC1	32	79	6	-2.2	96	i	1.1
17	COc1ccc(C2=NOC(C(=O)NCCN3CCOCC3)C2)cc1 (configuration not stated)	0	167	-1	-0.1	98	i	1.1
18	CN1CCN(c2ccc(NC(=O)COc3ccccc3[N+](=O)[O-])cc2)CC1	26	87	-5	.	89	i	1.1
19	C(=N/Nc1nccs1)/c1cccnc1	-38	126	-7	.	99	i	0.9
20	CCOc1ccc2cc(C#N)c(SCC(=O)OC)nc2c1	.	.	-9	-2.3	101	i	1.1
21	Cc1cc(C(=O)N/N=C/c2ccc(-c3cccc(Cl)c3)o2)n[nH]1	.	.	.	.	103	i	0.83
22	CC(=O)c1ccc(N2CCN(C(=O)CCCn3c(=O)[nH]c4ccccc4c3=O)CC2)cc1	13	75	4	.	102	i	0.91
23	O=C(Nc1cccc(NC(=O)c2ccc3c(c2)OCO3)c1)c1ccccc1	27	124	-8	.	109	i	0.88
24	O=C(CSc1n[nH]c(-c2ccccc2)n1)NCc1cccc(C(=O)O)c1	.	.	4	.	104	i	0.93
25	O=C(NCc1ccco1)c1ccc2c(c1)C(=O)c1ccccc1-2	-63	115	-3	-1.2	94	i	1.4
26	O=C(CCCOc1ccc(Cl)cc1Cl)N/N=C/c1ccccc1	-7	72	2	-1.5	108	i	0.81
27	Cc1ccc(C(C(=O)NC2CCCCC2)N(C(=O)Cc2c[nH]c3ccccc23)c2ccccc2C)o1 (configuration not stated)	-97	109	-1	0.9	101	i	0.81
28	CC(C)Nc1nc(NC(C)C)nc(OCCOC(=O)Nc2ccccc2)n1	.	.	-3	-1.2	96	i	0.92
29	Oc1cccc2c(NC(=S)Nc3ccc(OC(F)F)cc3)cccc12	14	114	5	-0.6	99	i	1
30	COCc1cccc(NC(=O)CCc2ccccc2)c1	-17	87	-1	.	102	i	1
31	COc1cccc(/C=N/NC(=O)c2c(C)nc3ccc(Br)cn23)c1	.	.	2	.	100	i	0.72
32	O=C1c2ccccc2C(O)N1CCN1CCOCC1 (configuration not stated)	.	.	-18	-0.6	107	i	1
33	CN(C)c1nc(=NCc2ccco2)ss1	.	.	.	.	93	i	1.1
34	CC(C)[C@H]1C=C(C(=O)O)O[C@@H](OCCCCO)C1	.	.	.	.	103	i	0.68
35	Cc1ccc(CS(=O)(=O)Cc2ccc(C(=O)NCc3cccs3)o2)cc1	6	63	2	.	98	i	1
36	O=C(Nc1ccc(C(F)(F)F)cc1)c1ccc2nc[nH]c2c1	17	124	-13	-2.3	103	i	0.94
37	Cc1ccc(-c2csc(Nc3ccccc3)[n+]2CCc2ccccc2)cc1	13	90	-6	.	99	i	1.1
38	O=S(N1CCCCCC1)C12CC3CC(CC(C3)C1)C2 (configuration not stated)	57	120	0	-1.0	103	i	0.91
39	COc1ccc(S(=O)(=O)N2CCCCCC2)cc1NC(=O)Cc1ccccc1F	.	.	.	.	100	i	1
40	COc1ccc2cc(/C(C)=N/NC(=S)Nc3cc(S(=O)(=O)N4CCOCC4)ccc3N3CCOCC3)ccc2c1	.	.	6	.	104	i	0.84
41	COc1ccc(C(c2nnnn2CC2CCCO2)N2CCN(c3ccc(F)cc3)CC2)cc1 (configuration not stated)	.	.	-6	-2.5	101	i	0.9
42	N#Cc1nc(Cc2ccccc2)oc1NCc1cccnc1	10	161	-12	-2.1	103	i	0.8
43	CCCCNC(=O)COC(=O)c1c2c(nc3ccccc13)/C(=C/c1cccs1)CC2	-17	106	-2	8.0*	97	i	1.2
44	C=CCn1c(O)c(N=O)c2cc(C)ccc21	29	113	1	.	73	i	0.94
45	CCCN1C(=O)C2(SC(NC(C)=O)=NN2C(C)=O)c2cc(C)cc(C)c21 (configuration not stated)	.	.	.	.	96	i	1.1
46	Cc1c(NC(=O)C(C)OC(=O)C23CC4CC(CC(Br)(C4)C2)C3)c(=O)n(-c2ccccc2)n1C (configuration not stated)	.	.	1	.	101	i	0.97
47	O=C(Nc1ccccc1F)c1ccccc1-c1ccccc1	.	.	-3	-0.6	98	i	0.91
48	CC1(C)CC(=O)NC=C(c2ccccc2)C1	.	.	-15	-1.2	107	i	0.87
49	O=C(NC(c1ccccc1)C(Cl)(Cl)Cl)c1ccccc1 (configuration not stated)	33	162	0	-1.2	100	i	1.1
50	Cc1sc2ncn(CC(=O)N3CCOCC3)c(=O)c2c1-c1ccccc1	-17	88	3	.	111	i	0.94
51	CSc1nc(Cl)cc(=O)[nH]1	.	.	.	.	95	i	0.83
52	Cc1nc2c(ncn2-c2ccccc2)c(=O)n1NC(=O)CN1CCOCC1	.	.	.	.	98	i	0.99
53	COC(=O)c1c[nH]n2c(=O)c(Cl)c(C)nc12	-17	119	-7	-0.8	105	i	0.93
54	COc1ccc(/C=C/C(=O)c2nc3ccccc3n2CC(=O)c2ccc(OC)cc2)cc1	.	.	-4	-0.9	105	i	0.86
55	CO/N=C/c1ccc(Oc2ccc(C)cc2)nc1	36	140	0	-1.9	98	i	0.85
56	CCOC(=O)c1ccc(NC(=O)Cn2ncc(Cl)c(Cl)c2=O)cc1	-170	16	7	-0.2	98	i	0.48
57	CCOC(=O)Cc1cc(=O)c2c(=O)n(-c3ccccc3)[nH]c2[nH]1	-38	88	3	-4.9	93	i	0.86
58	COc1ccc(C(CNC(=O)c2ccco2)N2CCCCC2)cc1 (configuration not stated)	.	.	1	.	100	i	1
59	CC(C)(C)c1cc(/C=N/O)cc(C(C)(C)C)c1O	28	121	-3	-1.1	105	i	0.87
60	CCc1cc2c(=O)c(-c3nc(C)cs3)coc2cc1O	.	.	.	.	96	i	0.9

Continuation.
no.	Compound	INS promoter inh	INS promoter inh cell count	PKD1 kinase inh	GALR2 ag	RGS16-Gao	HSV replic up	HSV replic up primary fold
61	O=C(Nc1ccc(Cl)cc1)c1ccc(OCC2CCCO2)cc1 (configuration not stated)	.	.	-8	.	100	i	0.92
62	Cn1cc(C(=O)c2cccc(Cl)c2Cl)cc1C#N	.	.	-7	.	96	i	0.98
63	O=C(N/N=C/c1cccnc1)c1cc2c(ccc3ccccc32)o1	.	.	-2	-1.7	101	.	.
64	O=C(c1ccc(Cl)cc1)N1CCCCC(Sc2nnc(-c3ccc4c(c3)OCO4)o2)C1=O (configuration not stated)	34	111	-16	-0.9	96	.	.
65	CC(C)(C)c1ccc(NC(=O)CNC2CCCc3ccccc32)cc1 (configuration not stated)	-33	118	5	.	107	i	1
66	COc1cccc(-c2cc(C(F)(F)F)nc(-n3cc(Cl)cn3)n2)c1	-3	133	-5	-1.6	37	i	0.98
67	CSc1nc(N)nc(SCCS(=O)(=O)c2ccc(Cl)cc2)c1C#N	19	93	-8	-1.2	103	i	0.79
68	CC(=O)NC(NC(=S)Nc1ccc(C)cc1C)C(Cl)(Cl)Cl (configuration not stated)	.	.	.	.	97	i	0.9
69	COc1cccc(CC(=O)Nc2cc(S(=O)(=O)N3CCOCC3)ccc2N2CCOCC2)c1	.	.	1	.	97	i	0.97
70	CCCCN1C(=O)C(=O)N(CC(=O)N2N=C3/C(=C/c4ccco4)CCCC3C2c2ccco2)C1=O (configuration not stated)	.	.	0	.	100	i	1.3
71	N#Cc1cn(CC(=O)N2CCCc3ccccc32)c2ccccc12	-229	101	5	-0.3	102	i	0.91
72	CCNc1nc(OC)nc(Oc2ccc(C(=O)OC)cc2)n1	-37	82	-1	-2.1	100	i	0.95
73	CC(C)CCNC(=O)C12CN(Cc3ccccc3)CC1C(c1cccc([N+](=O)[O-])c1)=NO2 (configuration not stated)	-22	174	-6	-2.3	104	i	0.98
74	COCCN(C(=O)c1cccc(OC)c1)c1nnc(-c2ccncc2)s1	.	.	-6	-0.6	107	i	0.97
75	Cc1ccc(S(=O)(=O)N2CCN(Cc3ccccc3)CC2)c(C)c1N(C)S(=O)(=O)c1ccccc1	.	.	3	-0.3	103	i	1
76	O=c1[nH]c2c(s1)C(c1ccco1)C1C3CCC(C3)C1S2 (configuration not stated)	-48	112	-2	-0.7	120	i	1.1
77	Clc1cccc2c1CCN(Cc1nc(-c3cnccn3)no1)C2	.	.	3	.	103	i	0.91
78	C=CCN(C(=O)CSc1nc2c(sc3ccccc32)c(=O)n1CCN(CC)CC)c1ccccc1	.	.	3	.	106	i	0.81
79	O=C(CC1(O)C(=O)N(Cc2ccccc2)c2ccccc21)c1ccncc1 (configuration not stated)	-97	77	-8	0.6	105	i	0.95
80	O=c1c2c([nH]c3ccccc13)CCCC2	24	105	-3	0.0	99	i	0.91
81	O=C1c2cccc(OCc3ccc(F)cc3)c2CCN1Cc1ccccc1	.	.	6	-1.9	100	.	.
82	O=C(O)C1CC=CCC1C(=O)Nc1ccc(S(=O)(=O)N2CCCc3ccccc32)cc1 (configuration not stated)	26	152	-7	-3.0	99	i	0.92
83	O=C(Nc1ccc(Cl)c(Cl)c1)c1ccncc1	-21	176	-10	-1.0	102	i	0.9
84	Cc1cc(C)nc(S/C=C/C(=O)c2ccccc2F)n1	.	.	.	.	100	i	0.71
85	N#Cc1c(NC(=O)CSc2nnnn2C2CCCC2)sc2c1CCCC2	-3	120	-7	-3.1	99	i	0.89
86	C=CCn1c(C)nnc1SCC(=O)N1CCN(S(=O)(=O)c2ccccc2)CC1	.	.	.	.	98	i	0.87
87	COc1ccc(-c2cc(C(F)(F)F)n3ncc(C(=O)N(C)Cc4ccccc4)c3n2)cc1	.	.	-2	.	97	i	0.93
88	CC(C)(C)NC(=O)CN(CCc1ccccc1)C(=O)c1csnn1	.	.	0	.	104	i	1
89	CC(=O)Nc1ccc(SCC(=O)c2cc(C)n(CC(F)(F)F)c2C)cc1	.	.	-3	0.2	59	i	0.81
90	O=C(CSc1ccc2nnc(-c3ccccc3)n2n1)NCc1ccco1	.	.	2	-0.1	91	i	0.81
91	O=C(Nc1ccccn1)c1cc(-n2cnnc2)ccc1Cl	31	120	-8	-0.9	100	i	0.95
92	CNC(=O)c1ccsc1NC(=O)c1ccc2c(c1)CCCC2	76*	143*	-2	-0.2	92	.	.

Compound activity (PubChem BioAssay)
